High-throughput results (PubChem)
HSV augment: increases HSV replication in cells; HSV replication augmentation in cells, fold increase; maximum fold increase; 220,000 tested, 0.005% active; AID 1956;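 active means peak rise of 1.5-fold or more in the series; inconclusive means self-fluorescent or not available for retest; tested in PC3 cells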;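 further: first round at 10 µM; read as green reporter fluorescence; hits show the peak of a series up to 25 µM; 1 = signal of infected wells without compound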
RGS16-Gao: RGS16-Galphao interaction regulator (human); bead-based flow cytometry RGS16-Galphao binding, fluorescence; actives lie on both sides; binding response (% of control), % at 10 µM; 220,000 tested, 0.38% active; O15492+P09471;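 active means below 25% or above 175%, edge rows of some plates excepted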;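 further: Galphao activated by GDP with aluminum fluoride before binding; 100% = wells without compound and 0% = beads without RGS; some results beyond the cut were filed as inactive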
Target sequence (O15492 whole entry, looked up): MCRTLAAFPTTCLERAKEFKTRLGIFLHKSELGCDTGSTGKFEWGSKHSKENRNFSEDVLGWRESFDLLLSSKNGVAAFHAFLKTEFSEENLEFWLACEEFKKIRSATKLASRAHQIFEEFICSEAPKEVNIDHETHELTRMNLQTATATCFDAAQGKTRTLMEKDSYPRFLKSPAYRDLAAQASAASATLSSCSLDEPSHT
Target sequence (P09471 whole entry, looked up): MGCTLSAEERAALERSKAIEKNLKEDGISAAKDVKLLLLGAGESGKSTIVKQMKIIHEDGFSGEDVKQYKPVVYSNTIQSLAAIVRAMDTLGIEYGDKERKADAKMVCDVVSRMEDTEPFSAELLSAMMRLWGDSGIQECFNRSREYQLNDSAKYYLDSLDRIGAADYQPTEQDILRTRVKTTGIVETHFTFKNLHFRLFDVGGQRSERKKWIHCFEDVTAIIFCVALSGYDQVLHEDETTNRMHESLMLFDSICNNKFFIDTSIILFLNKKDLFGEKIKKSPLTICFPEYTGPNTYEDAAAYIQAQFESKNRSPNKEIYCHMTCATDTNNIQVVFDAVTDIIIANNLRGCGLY
INS promoter inh: TRM-6 insulin promoter activity inhibition; TRM-6 cells (human fetal islet line), insulin promoter-eGFP reporter, imaging; reporter expression induced with tamoxifen; inhibition, % at 2 µM; 130,000 tested, 0.9% active; AID 1273;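 active means inhibition above the mean plus 3 SD, with well images judged a real hit on visual review, cut at about 60% in these data, passing the limit was not always enough; inconclusive means inhibition over the cutoff but images rejected on review; inactive means inhibition not above the cutoff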
GALR2 ag: GALR2 (human) receptor agonism | activation, %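 (tested at 5 µM)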 | O43603 | GALR2-expressing cells, agonist activation read-out | 140,000 tested, 0.48% active | AID 803;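 active means above mean plus 3 SD of all compounds, about 5% in these data, not always enough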;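 further: 0% = vehicle buffer wells and 100% = reference agonist at full effect; tested in CHO reporter cells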
Target sequence (O43603 whole entry, looked up): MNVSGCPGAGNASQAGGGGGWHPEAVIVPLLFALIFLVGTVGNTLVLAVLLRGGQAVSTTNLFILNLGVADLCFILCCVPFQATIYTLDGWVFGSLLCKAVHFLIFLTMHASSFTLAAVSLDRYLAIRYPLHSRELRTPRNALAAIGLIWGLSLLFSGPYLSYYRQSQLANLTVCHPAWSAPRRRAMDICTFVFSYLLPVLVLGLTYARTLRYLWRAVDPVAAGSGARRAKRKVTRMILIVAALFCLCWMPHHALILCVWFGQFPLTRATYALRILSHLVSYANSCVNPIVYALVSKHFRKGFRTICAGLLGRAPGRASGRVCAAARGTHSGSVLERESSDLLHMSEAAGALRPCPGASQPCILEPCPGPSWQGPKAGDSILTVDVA
PKD1 kinase inh: inhibitors of human PKD1 kinase; Q15139; PKD1 kinase fluorescence polarization assay; inhibition, %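 (about 10 µM by stock and volumes)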; 200,000 tested, 0.056% active; AID 797;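 active means inhibition of 50% or more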;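 further: controls were vehicle for no effect and a reference inhibitor for full effect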
INS promoter inh cell count: further read-out of INS promoter inh, marked with its call; normalized cell count, %; measured here: cell count, toxicity; reference of the scale not given here;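 cells exposed to compound for 48 h; stained nuclei by imaging scaled within each plate; lower means fewer cells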
HSV augment primary fold: also measured in HSV augment; calls as there; fold increase; compound at 10 µM; measured here: primary screen fold increase 10 uM; tested in PC3 cells;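 GFP signal in the first replicate; 1 = infected wells without compound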
* = called active by the depositor; i = inactive; ? = inconclusive; . = not tested or not shown.

SMILES | HSV augment | HSV augment primary fold | RGS16-Gao | INS promoter inh | INS promoter inh cell count | GALR2 ag | PKD1 kinase inh
CC(C)CC(=O)NC(=S)Nc1ccc(S(=O)(=O)N2CCN(C)CC2)cc1 | i | 0.98 | 111.5 | -7.7 | 115.1 | -0.8 | -9.3
CCN(CC)C(=O)CSc1nnc(-c2ccccc2)n1-c1ccccc1 | i | 0.86 | 96.6 | 21.4 | 84.9 | -2.9 | 0.5
CC(C)(C)c1ccc(NC(=O)COC(=O)CCc2nc3ccccc3c(=O)[nH]2)cc1 | i | 1.04 | 105.0 | . | . | -0.7 | -0.3
COC(=O)c1nnn(-c2nonc2N)c1COc1ccc(C=O)cc1OC | i | 1 | 100.0 | . | . | . | 10.6
CC(NC(=O)Nc1ccccc1C(F)(F)F)C1CCCO1 (stereo not drawn) | i | 1.13 | 94.9 | -1.4 | 132.2 | -1.5 | -3.3
Cc1nc2c3ccccc3nc(NNC(=O)CCC(=O)NCCC(C)C)n2n1 | i | 0.98 | 98.2 | -22.6 | 105.3 | -0.2 | -5.7
CN1CCN(NC(=O)c2cn(-c3ccccc3)nc2-c2cccs2)CC1 | i | 0.88 | 118.7 | -9.1 | 101.7 | . | -5.2
COC(=O)c1ccccc1OCC(=O)N1CCN(c2ccc(OC)cc2)CC1 | i | 0.85 | 101.5 | . | . | 0.1 | -2.0
CC(=O)NC1(C(F)(F)F)C(=O)Nc2c1c(=O)[nH]c(=O)n2CCc1ccccc1 (stereo not drawn) | i | 0.95 | 108.6 | . | . | . | .
C(=N\N1CCN(C2c3ccccc3-c3ccccc32)CC1)/c1cccnc1 | i | 1.05 | 99.6 | 25.8 | 88.7 | -0.3 | -7.0
Cc1ccc(C(=O)NN2C(=O)C3C4c5ccccc5C(c5ccccc54)C3C2=O)cc1 (stereo not drawn) | i | 0.97 | 67.4 | 13.3 | 105.0 | -2.0 | -8.7
Cc1ccc(NC(=O)N2CCCC2C(=O)NCC2CCCO2)cc1 (stereo not drawn) | i | 1.03 | 102.2 | . | . | . | -4.2
CCCCn1c(SCC(=O)NCc2ccco2)nc2c1c(=O)n(C)c(=O)n2C | i | 0.82 | 41.1 | 28.6 | 103.3 | -2.8 | -3.5
Cc1ccnc2nc(C(=O)OCC(=O)N3CCc4ccccc43)nn12 | i | 1.13 | 100.8 | . | . | . | 0.4
Cc1cccn2c(=O)c3cc(C(=O)N4COCC4(C)C)sc3nc12 | i | 0.93 | 102.0 | -33.3 | 109.4 | . | 1.0
O=c1c2ccccc2ncn1C1CCCCC1 | i | 0.66 | 100.5 | 30.0 | 112.7 | -1.8 | -6.3
CCOC(=O)c1cn2c3c(c(F)c(F)cc3c1=O)SC(N1CCOCC1)=N2 | . | . | . | 16.3 | 109.4 | -0.6 | -11.9
CN1C(=O)/C(=C/c2ccccc2OCc2ccccc2F)NC1=S | . | . | 128.4 | -4.7 | 100.9 | 0.1 | -4.0
CC(C)N1C(=O)CN(C2CCCCCC2)C(=O)C1c1ccccc1F (stereo not drawn) | i | 0.99 | 100.2 | . | . | -1.6 | 7.1
CON(C)c1nc(OCC#N)nc(N(C)C)n1 | i | 1.07 | 90.8 | 32.1 | 108.8 | -1.1 | -2.0
COc1ccc(C(CNC(=O)c2ccc(S(=O)(=O)N(C)C)cc2)N(C)C)cc1 (stereo not drawn) | i | 0.87 | 98.3 | 5.3 | 112.7 | . | -1.8
COc1ccc(NC(=O)/C(C#N)=C\c2ccc(OCc3ccc(C(=O)O)cc3)c(OC)c2)cc1 | i | 1.01 | 100.5 | -33.3 | 128.4 | . | -10.4
CC(C)COC(=O)NC1c2ccccc2Oc2ccccc21 | i | 1.3 | 91.0 | . | . | . | .
CCOc1ccc(CCNC(=O)c2oc3c(c2C)-c2[nH]ncc2CC3)cc1OCC | i | 1.02 | 96.3 | . | . | -1.7 | -14.3
CC1=C(C#N)C(c2cn(-c3ccccc3)nc2-c2cccs2)C(C#N)=C(C)N1 | i | 0.97 | 30.5 | 9.1 | 114.8 | -2.6 | -5.9
COc1ccc(OC)c(C(Nc2ccccc2)P(=O)(OC(C)C)OC(C)C)c1 (stereo not drawn) | i | 0.93 | 103.2 | . | . | . | .
CCOC(=O)C1CCN(Cc2c(F)cccc2Cl)CC1 | i | 0.79 | 129.4 | 22.7 | 35.3 | -0.6 | -3.0
CCOC(=O)C1=C(N2CCCCC2)c2cc3c(n2C1=O)CCCC3 | i | 0.8 | 101.5 | . | . | -1.4 | 19.0
CC(C)(C)C1CCc2c(sc(NC(=O)c3ccncc3)c2C(N)=O)C1 (stereo not drawn) | i | 0.64 | 89.5 | 35.4 | 125.7 | -0.7 | -6.9
Cc1ccc(Oc2ccc(C=O)cn2)cc1 | i | 0.96 | 106.1 | . | . | . | -1.0

Quoted from the listing:
INS promoter inh cell count result of Cc1cccn2c(=O)c3cc(C(=O)N4COCC4(C)C)sc3nc12 : 109.4
RGS16-Gao result of CC(C)(C)c1ccc(NC(=O)COC(=O)CCc2nc3ccccc3c(=O)[nH]2)cc1 : 105.0
RGS16-Gao result of CON(C)c1nc(OCC#N)nc(N(C)C)n1 : 90.8

Carrying on.
SMILES | HSV augment | HSV augment primary fold | RGS16-Gao | INS promoter inh | INS promoter inh cell count | GALR2 ag | PKD1 kinase inh
COCCCNC(=O)CCc1ccc(S(=O)(=O)Nc2ccc(C)cc2)cc1 | i | 0.88 | 104.8 | -8.3 | 107.4 | -2.0 | 2.2
CCOC(=O)c1sc(-c2ccc(C(F)(F)F)cc2)nc1O | ? | . | 95.4 | . | . | . | .
CCOc1ccc2[nH]c(=O)c(CN(Cc3ccc(C)cc3)C(=O)N3CCCC3)cc2c1 | i | 1.04 | 99.2 | 6.5 | 110.2 | -1.5 | 4.2
Cc1ccnc(NC(=O)c2cccc([N+](=O)[O-])c2C)c1 | i | 0.85 | 101.1 | 16.7 | 112.5 | . | 0.9
COc1cc(C(=O)NCc2nnc(SCC(=O)N3CCCCC3)o2)cc(OC)c1OC | i | 0.94 | 100.9 | -32.1 | 83.9 | -3.3 | 0.6
O=C(NCc1cccnc1)c1cccnc1Sc1ccc(Cl)cc1 | i | 0.9 | 49.8 | -10.7 | 107.5 | -1.0 | 2.5
Cc1nn(CC2CC2)c(=O)n1-c1ccccc1F | i | 0.97 | 99.7 | . | . | . | -0.6
Cc1ccccc1Cn1ccc(-c2ccc(Cl)cc2)c(C#N)c1=O | i | 0.91 | 99.1 | 3.3 | 45.8 | -2.1 | -10.0
CCOc1cccc2sc(N(CCN(CC)CC)C(=O)c3ccc(S(=O)(=O)N4CCCCC4)cc3)nc12 | i | 1.02 | 97.4 | -25.0 | 98.5 | . | -4.3
Cc1ccc2[nH]c(=O)c(CN(CC3CCCO3)C(=S)NCc3ccco3)cc2c1 (stereo not drawn) | i | 0.91 | 170.6 | -66.7 | 88.7 | 0.1 | -19.5
Clc1ccc(CN=C2Nc3ccccc3CS2)cc1 | i | 0.84 | 96.4 | 29.4 | 101.8 | -1.2 | -5.4
c1ccc2sc(-c3ccc4c(c3)OCO4)nc2c1 | i | 0.92 | 101.5 | 41.7 | 111.2 | 0.3 | -4.9
CC1S/C(=N/N=C2CCCCC2)NC1=O (stereo not drawn) | i | 0.94 | 102.3 | 13.3 | 121.7 | -1.1 | 5.3
CCC(C)NC(=O)c1cc2cc3ccc(OC)cc3nc2s1 (stereo not drawn) | i | 0.84 | 98.6 | 3.2 | 159.8 | -3.5 | 2.5
Cc1ccc(-c2c[n+](CC(=O)Nc3nc(-c4ccc(F)cc4)cs3)c3n2CCC3)cc1 | i | 0.9 | 94.4 | . | . | -2.1 | 1.5
CCCCCCCc1ccc(C2NC(=S)NC3=C2C(=O)c2ccccc23)cc1 (stereo not drawn) | i | 0.79 | 97.0 | . | . | . | .
CN1/C(=C\C(=O)C[n+]2ccc3ccccc3c2)C(C)(C)c2ccccc21 | i | 1 | 109.0 | -407.1 | 32.9 | . | -3.8
COc1ccc(CCNC(=O)[C@@H](NC(N)=O)C(C)C)cc1 | i | 1 | 84.0 | 9.1 | 41.4 | . | -2.9
Cn1ccnc1SCCNC(=O)CCc1nnc(CCc2ccccc2)o1 | i | 0.89 | 117.7 | . | . | . | -5.0
COCCc1nnc(NC(=O)C(C)C)s1 | i | 0.99 | 99.8 | . | . | . | .

An excerpt from above, showing only HSV augment primary fold and GALR2 ag.
structure	HSV augment primary fold	GALR2 ag
COCCc1nnc(NC(=O)C(C)C)s1	0.99	.
Cn1ccnc1SCCNC(=O)CCc1nnc(CCc2ccccc2)o1	0.89	.

The listing continues:
SMILES | HSV augment | HSV augment primary fold | RGS16-Gao | INS promoter inh | INS promoter inh cell count | GALR2 ag | PKD1 kinase inh
CCOC(=O)NC(NCc1cccc(C(F)(F)F)c1)(C(F)(F)F)C(F)(F)F | i | 0.9 | 106.5 | . | . | -1.2 | -2.0
O=C(NCc1ccccc1)C1=C[C@H](C2CC2)C[C@H](OCCCCO)O1 | i | 0.89 | 107.1 | . | . | . | 4.7
CC(C)C1=NN(C(=O)c2ccccc2)C(O)(C(C)(C)C)C1 (stereo not drawn) | . | . | 103.9 | . | . | -0.6 | -5.7
Cn1c(C(C(=O)NCC2CCCO2)N(C(=O)Cn2nnc3ccccc32)C2CCCCC2)nc2ccccc21 (stereo not drawn) | i | 1.14 | 100.8 | -9.1 | 125.8 | 0.0 | 6.9
Cc1ccc(Oc2nc(CN3CCOCC3)nc3sc4c(c23)CCC(C)C4)cc1 (stereo not drawn) | i | 0.98 | 101.1 | . | . | 0.7 | 10.9
COc1ccc(N(CC(=O)Nc2cc(C)ccc2OC)S(=O)(=O)c2c(C)noc2C)cc1 | i | 0.86 | 101.8 | . | . | -0.1 | -10.1
Cc1nc(CSc2ccccc2)cc(=O)[nH]1 | i | 0.97 | 118.2 | 27.3 | 52.9 | . | 3.6
COC(=O)/C(=C\Nc1ccccc1N)c1ncc(C(F)(F)F)cc1Cl | i | 0.96 | 111.4 | -21.4 | 106.3 | -2.3 | -3.3
Cn1c(N)c(C(=O)NCc2ccccc2)sc1=S | i | 1.06 | 91.6 | -12.5 | 135.4 | -0.8 | -4.6
Cc1cc2c(c(SCC(=O)N(C)c3ccccc3)n1)C(=O)OC2 | i | 1 | 104.5 | -21.4 | 78.5 | -3.1 | -2.5
CCc1cccc(CC)c1NC(=O)COC(=O)c1ccccc1-c1nc2ccccc2s1 | i | 1.03 | 99.7 | 36.7 | 57.3 | -2.4 | -10.6
COc1ccc(CCNC(=O)C(=O)Nc2nccs2)cc1OC | i | 0.99 | 97.9 | 52.3 | 85.5 | 0.9 | 3.3
Cn1c(SCC(=O)NNC(=O)c2ccc(Br)cc2)nnc1-c1cccnc1 | i | 0.92 | 102.0 | 16.7 | 130.1 | . | -6.8
CN1CCN(S(=O)(=O)c2cccc(C(=O)Nc3nccs3)c2)CC1 | i | 1.14 | 100.6 | . | . | . | .
CCCCNC(=O)Cn1c(=O)oc2cc(S(=O)(=O)N3CC(C)CC(C)C3)ccc21 (stereo not drawn) | i | 0.86 | 102.0 | . | . | -2.3 | -1.9
COc1ccccc1C1=NOC(COC(=O)c2ccc3ccccc3n2)C1 (stereo not drawn) | i | 0.84 | 103.0 | . | . | -2.0 | 12.4
O=C(Cc1ccc(-n2c(=O)[nH]c3ccccc3c2=O)cc1)N1CCN(c2cccc(Cl)c2)CC1 | i | 0.81 | 106.2 | 36.1 | 66.2 | -2.3 | -3.9
Cc1ccccc1CNC1CCCCC1 | i | 1.1 | 109.7 | -41.7 | 104.9 | -0.3 | -6.6
Cc1cccnc1NC1OC(=O)c2ccccc21 (stereo not drawn) | i | 0.93 | 95.6 | 21.4 | 149.3 | -2.4 | -2.4
Cc1ccc(S(=O)(=O)Cc2cccc(C(=O)N3CCOCC3)c2)cc1 | i | 1.02 | 107.0 | 21.1 | 190.9 | -2.1 | -5.7

A stretch taken from the entries so far:
SMILES | HSV augment | HSV augment primary fold | RGS16-Gao | INS promoter inh | INS promoter inh cell count | GALR2 ag | PKD1 kinase inh
CC(C)CC(=O)NC(=S)Nc1ccc(S(=O)(=O)N2CCN(C)CC2)cc1 | i | 0.98 | 111.5 | -7.7 | 115.1 | -0.8 | -9.3
CCN(CC)C(=O)CSc1nnc(-c2ccccc2)n1-c1ccccc1 | i | 0.86 | 96.6 | 21.4 | 84.9 | -2.9 | 0.5
CC(C)(C)c1ccc(NC(=O)COC(=O)CCc2nc3ccccc3c(=O)[nH]2)cc1 | i | 1.04 | 105.0 | . | . | -0.7 | -0.3
COC(=O)c1nnn(-c2nonc2N)c1COc1ccc(C=O)cc1OC | i | 1 | 100.0 | . | . | . | 10.6
